# High-throughput results deposited in PubChem by several laboratories.
# Sa ugtP lethal – growth inhibition of ugtP-null S. aureus, primary screen, RN4220 ugtP deletion, OD600. 330,000 tested, 0.54% active. 16 h; some inactives read as strong as hits. growth inhibition, % (concentration not given with the values). AID 1259309, 2017;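 active means z-score under -3 and OD600 up to 0.15 on both plates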;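 further: plate controls were untreated wells for no effect and antibiotic for full effect; wells of about 80 µL received 100 nL stock; the first replicate is given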
# Autofluor counter – flagged as autofluorescent in microsphere protease counterscreen. compound autofluorescence counterscreen, microsphere flow cytometry; active compounds read high. fluorescence intensity (test concentration not listed). 360,000 tested, 3.1% active;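 active means at least 3 SD above the mean of all compounds, about 16000 in these data; inconclusive means too few beads counted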;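 further: 100 nL of 1 mM stock went into each well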
# PrP UTR inh – inhibition of PrP 5' UTR reporter expression. 340,000 tested, 0.35% active. cell-based PrP 5' UTR mRNA reporter, plate reader. inhibition, % (test concentration not listed);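 active means every replicate at 50% or more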;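 further: 0 = median of the neutral control wells; tested in H4 reporter cells; numbers are from one replicate; inactives centre near -14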
# Mtb hypoxia inh – PubChem AID 1159583; M. tuberculosis hypoxia-regulated fluorescent reporter, fluorescence; fluorescence inhibition, % (no concentration beside the values); 300,000 tested, 0.1% active;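 active means 35 to 45% if threefold the growth effect, above 45% if 1.5-fold the growth effect; inactive means the rest, general growth blockers included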;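 further: wells of about 50 µL received 100 nL stock; 0% = vehicle wells and 100% = reference inhibitor wells; whole bacteria with a GFP reporter of the hypoxia response; strong numbers were not always called active; many hits fall short of the cut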
# BJeLR viability – MLPCN primary cell-based screen for lethality selective to Ras in HRASV12 cells; inhibition, % (test concentration not listed); BJeLR (HRASV12) viability, CellTiter-Glo ATP luminescence, 48 h; reference of the scale not given here; 300,000 tested, 0.17% active;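 active means replicate mean above 50%; inconclusive means above 50% but judged a plate artefact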;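 further: 50 nL library stock added to about 25 µL; numbers are from one replicate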
# RN4220 kill – growth inhibition of S. aureus RN4220, primary screen, OD600 | AID 1259311, 2017 | 330,000 tested, 0.33% active | inhibition, % (test concentration not listed) | 16 h;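 active means z-score of -3 or lower and OD600 up to 0.18 on both plates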;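 further: plate controls were untreated cells for no effect and reference antibiotic for full effect; stock transfer was 100 nL into about 80 µL; one replicate is shown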
# Mtb hypoxia inh growth – also measured in Mtb hypoxia inh; calls as there; growth inhibition, %; measured here: M. tuberculosis growth (absorbance);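 0% = vehicle and 100% = reference antibiotic; read after six days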
# Starred values were filed as active, the others as inactive; ? = inconclusive; · = not tested or not shown.
SMILES,Sa ugtP lethal,Autofluor counter,PrP UTR inh,Mtb hypoxia inh,Mtb hypoxia inh growth,BJeLR viability,RN4220 kill
CCOc1cc(N2CCOCC2)c(OCC)cc1NC(=O)c1ccc(S(=O)(=O)N2CC(C)OC(C)C2)cc1 (stereo not given),3,3445,-7,0,0,·,1.5
CN(C)c1ccnc(Oc2ccc(C(C)(C)C)cc2)c1C#N,19,7646,-44,1,8,9,4.9
O=C(NCCc1ccc(F)cc1)c1ccc(NS(=O)(=O)c2ccc3[nH]c(=O)[nH]c3c2)cc1,1,5131,-18,5,4,-7,0.7
Cc1ccc(NC(=S)NNC(=O)c2ccc(N3CCOCC3)c([N+](=O)[O-])c2)cc1C,23,2510,17,6,4,8,7.9
COC(=O)c1ccc(-c2ccc(/C=N/NC(=O)Cc3nnc(N)s3)o2)cc1,·,4074,-4,·,·,6,·
c1ccc(CNc2ncnc3c2cnn3Cc2ccccc2)cc1,6,12665,-16,26,10,10,-10
CC(C)CN(C(=O)COC(=O)/C=C/c1cccs1)c1c(N)n(Cc2ccccc2)c(=O)[nH]c1=O,-1,·,-7,2,-3,4,-1.6
CC1=Nc2ccccc2/C1=C\c1nc(-c2ccc(C(F)(F)F)cc2)oc1O,60,17953*,·,6,9,-1,67
Fc1ccc(CNc2ncccn2)cc1,13,3268,0,10,12,-4,4.5
CCOc1ccc(C2c3cc(OC)c(OC)cc3CC(=O)N2c2ccccc2)cc1 (stereo not given),11,20080*,-12,6,2,7,-6.4
Nc1nc2ccc(O)cc2s1,·,?,0,·,·,8,·
Cc1cc(C)nc(SCC(=O)c2c(N)n(C)c(=O)n(C)c2=O)n1,0,23309*,-9,-13,-7,0,2.5

# Full records, looked up by structure.
# Fc1ccc(CNc2ncccn2)cc1 in the list: Sa ugtP lethal = 13; Autofluor counter = 3268; PrP UTR inh = 0; Mtb hypoxia inh = 10; Mtb hypoxia inh growth = 12; BJeLR viability = -4; RN4220 kill = 4.5
# CCOc1ccc(C2c3cc(OC)c(OC)cc3CC(=O)N2c2ccccc2)cc1 (stereo not given) in the list: Sa ugtP lethal = 11; Autofluor counter = 20080*; PrP UTR inh = -12; Mtb hypoxia inh = 6; Mtb hypoxia inh growth = 2; BJeLR viability = 7; RN4220 kill = -6.4

# Continuation:
SMILES,Sa ugtP lethal,Autofluor counter,PrP UTR inh,Mtb hypoxia inh,Mtb hypoxia inh growth,BJeLR viability,RN4220 kill
COc1ccc(/C(O)=C/C(=O)C(=O)Nc2c(C)n(C)n(-c3ccccc3)c2=O)cc1,·,21666*,-17,·,·,-1,·
Cc1cccc(N2CCN(S(=O)(=O)c3ccc4c(c3)CC(=O)N4C)CC2)c1C,17,6238,-15,-8,1,5,9.1
COc1cc(OC)cc(-c2c(C#Cc3ccsc3)c3cc(Br)ccc3n2C)c1,-1,3894,5,-1,1,·,-2.3
CC12CCC(C(=O)N3CCOCC3)([C@H](Br)C1=O)C2(C)C (stereo not given in full),9,3342,·,4,1,-8,1.2
O=C(c1cc(Br)ccc1Cl)N1CCN(c2ccc(N3CCOCC3)nn2)CC1,8,4576,-26,13,0,-10,3.4
COc1ccc(C=Nn2c(-c3ccccc3)n[nH]c2=S)cc1,0,·,·,-7,-8,·,1.4
CCCCS(=O)(=O)Nc1ccc2cn[nH]c2c1,5,4107,-10,0,9,-2,5.9
O=C(O)C1C2C=CC(C2)C1C(=O)Nc1cccc(C(=O)N2CCCCC2)c1 (stereo not given),3,6659,-19,3,1,6,0.3
O=C(CNC(=O)c1ccccc1)NN=Cc1cc(Br)ccc1O,9,·,·,14,5,·,8.8
COc1ccccc1CNCc1ccc(OC)c(OC)c1OC,-3,8177,-23,-2,6,-2,1.0
Cc1ccc(C)c2nc3sc(C(=O)O)cc3cc12,-7,4196,-24,2,3,-6,5.3
O=CN1CCN(C(=O)c2ccc([N+](=O)[O-])cc2)CC1,-8,2093,-1,5,1,12,2.9
CCOC(=O)C1C2COc3ccc(OC)cc3C2N2C(=O)CN(CC3CCCO3)C(=O)[C@@]12C (stereo not given in full),1,·,·,-1,-4,·,-1.8
CCOc1cc(S(=O)(=O)NCCCn2ccnc2)ccc1Cl,-1,2983,-14,10,-2,-15,4.1
O=C(NNC(=O)c1cccs1)c1ccc(Cl)c([N+](=O)[O-])c1,6,2612,-23,5,17,4,2.1
CCSc1nc2c(c(=O)[nH]1)C(c1ccc(C)cc1)C1=C(CCCC1=O)N2 (stereo not given),5,4548,-19,1,-7,8,2.6
COc1cccc2cc(C(=O)N3CCCCCCC3)c(=O)oc12,-1,4765,-41,-6,-3,10,-0.1
CN1CCSc2ccc(C(=O)Nc3cc(F)ccc3F)cc21,2,4162,-56,9,-8,3,4.3
Oc1ccc(/C=N/N2CCN(C3c4ccccc4-c4ccccc43)CC2)c(O)c1,·,3566,-14,·,·,5,·
COc1cccc(CNC(=O)CCC2CCCN(C(=O)c3cccc4c(C)c(C)[nH]c34)C2)c1 (stereo not given),6,3294,-24,4,8,-6,-1.8
N#C/C(=C\c1cccnc1)c1ccc([N+](=O)[O-])cc1,-2,4475,-1,12,-1,3,10
CCCCCCCNC(=O)C1(CC2CC(c3cccc(Br)c3)=NO2)CCN(C(=O)C2CCCC2)CC1 (stereo not given),11,3770,-14,-4,12,7,1.8
COc1ccc(OCC(=O)N(C)CC2COc3ccccc3O2)cc1 (stereo not given),0,3559,-14,10,2,·,2.4
O=C(CSc1cccc[n+]1[O-])Nc1ccc(C(F)(F)F)cc1[N+](=O)[O-],3,5570,-12,13,5,2,1.8
C(=NC(N=Cc1ccco1)c1ccco1)c1ccco1 (stereo not given),-3,·,·,9,7,·,0.8
CN(c1ccc(OCCOc2ccccc2Cl)cc1)S(=O)(=O)c1ccccc1,17,3174,14,-2,-10,·,13
COC(=O)c1ccccc1NC(=O)CCNC(=O)Cn1cnc2ccccc2c1=O,3,2738,-25,·,·,2,1.3
CC(=O)N1c2ccc(S(=O)(=O)NCCC(=O)Nc3ccc(OC(F)(F)F)cc3)cc2CC1C (stereo not given),5,6014,-19,-4,-7,1,4.1
COc1cc(/C=C(\C#N)c2nc3ccccc3[nH]2)cc(OC)c1O,-7,3054,-33,0,7,0,12
CC(=O)c1sc2nsc(SCCN3CCCCC3)c2c1N,10,6353,-24,11,2,-8,-0.6
NNC(=O)c1ccc(COc2cccc3cccnc23)cc1,-4,2279,-11,8,3,-11,0.9
Cc1ccc2nc(SCC(=O)Nc3ccc(F)c([N+](=O)[O-])c3)[nH]c2c1,-19,2601,-23,3,4,7,1.7
COc1cc(CCC(=O)OCC(=O)Nc2cc(S(=O)(=O)N3CCOCC3)ccc2Cl)cc(OC)c1OC,-1,4438,-2,5,9,·,4.2
Cc1ccc(CN(c2ccc(C(=O)Nc3cccnc3)cc2)S(C)(=O)=O)cc1,7,10993,-9,11,-4,-4,2.2
Cc1ccc(CSCCNC(=O)c2ccc(N(C)S(=O)(=O)c3ccccc3)cc2)cc1,5,3115,1,19,-24,1,24
O=C(O)c1cccc(Cn2cccn2)c1,3,2866,-4,·,·,-4,1.5

# Two of the compounds above, as tab-separated lines.
SMILES	Sa ugtP lethal	Autofluor counter	PrP UTR inh	Mtb hypoxia inh	Mtb hypoxia inh growth	BJeLR viability	RN4220 kill
COC(=O)c1ccccc1NC(=O)CCNC(=O)Cn1cnc2ccccc2c1=O	3	2738	-25	·	·	2	1.3
CN(c1ccc(OCCOc2ccccc2Cl)cc1)S(=O)(=O)c1ccccc1	17	3174	14	-2	-10	·	13

# (further entries)
SMILES,Sa ugtP lethal,Autofluor counter,PrP UTR inh,Mtb hypoxia inh,Mtb hypoxia inh growth,BJeLR viability,RN4220 kill
CC(NC(=O)c1cn(C(C)c2ccccc2F)nn1)c1ccncc1 (stereo not given),8,1994,6,13,0,-6,3.1
C/C(=N/OC(=O)C1CC12CCC2)c1ccc(Br)cc1 (stereo not given),·,2757,-41,·,·,-11,·
COc1ccc2cc(C#N)c(Cl)nc2c1,5,4221,-15,15,11,-2,4.4
COC(=O)c1cc2c(C)nn(-c3ccccc3)c2s1,-3,2821,-31,·,·,6,8.1
CCc1ccc(CN/C=C/C(=O)c2ccc(Br)cc2)cc1,-18,2559,-17,·,·,2,-6.4
Cc1ccccc1N1CCN(CC(=O)NCc2ccc(Cl)cc2)CC1,12,4205,-19,17,10,1,-4.5
CCOC(=O)COc1ccc2nsnc2c1Cl,1,2285,-34,·,·,11,4.0
CCOc1cc(S(=O)(=O)Nc2cc(C)cc(C)c2)ccc1Cl,-13,8516,-8,-3,-3,-9,-4.6
Cc1ccc(-n2nc3c(N4CCC(C(=O)N5CCC(C(N)=O)CC5)CC4)nnc(C)c3c2C)cc1,2,11808,-11,1,5,-3,2.1
COc1ccc(S(=O)(=O)Nc2ccc(O)c(Sc3ncn[nH]3)c2)cc1,2,5831,-13,-4,3,9,0.2
OC(CSc1ccccc1)CN1CCN(c2ccccc2)CC1 (stereo not given),2,3601,-3,3,9,·,1.0
CC(C)(C)C(=O)C(C#N)=Cc1ccc(O)cc1,1,·,·,0,4,·,7.2

# Reformatted as labelled records: 4 of the compounds above.
> Cc1ccccc1N1CCN(CC(=O)NCc2ccc(Cl)cc2)CC1
  Sa ugtP lethal = 12
  Autofluor counter = 4205
  PrP UTR inh = -19
  Mtb hypoxia inh = 17
  Mtb hypoxia inh growth = 10
  BJeLR viability = 1
  RN4220 kill = -4.5
> CCOC(=O)COc1ccc2nsnc2c1Cl
  Sa ugtP lethal = 1
  Autofluor counter = 2285
  PrP UTR inh = -34
  Mtb hypoxia inh = ·
  Mtb hypoxia inh growth = ·
  BJeLR viability = 11
  RN4220 kill = 4.0
> CCOc1cc(S(=O)(=O)Nc2cc(C)cc(C)c2)ccc1Cl
  Sa ugtP lethal = -13
  Autofluor counter = 8516
  PrP UTR inh = -8
  Mtb hypoxia inh = -3
  Mtb hypoxia inh growth = -3
  BJeLR viability = -9
  RN4220 kill = -4.6
> Cc1ccc(-n2nc3c(N4CCC(C(=O)N5CCC(C(N)=O)CC5)CC4)nnc(C)c3c2C)cc1
  Sa ugtP lethal = 2
  Autofluor counter = 11808
  PrP UTR inh = -11
  Mtb hypoxia inh = 1
  Mtb hypoxia inh growth = 5
  BJeLR viability = -3
  RN4220 kill = 2.1

# More results
SMILES,Sa ugtP lethal,Autofluor counter,PrP UTR inh,Mtb hypoxia inh,Mtb hypoxia inh growth,BJeLR viability,RN4220 kill
COc1ccc(S(=O)(=O)N(Cc2cccs2)C2CCCC2)cc1,27,3515,-9,·,·,0,7.0
CCOC(=O)C1CCN(C(=O)c2cccc(C(=O)N3CCC(C(=O)OCC)CC3)c2)CC1,-8,21616*,-4,-4,7,-2,-4.1
Cc1cnc(C(=O)OCC(=O)Nc2cc(S(=O)(=O)N3CCOCC3)ccc2Cl)cn1,-1,4269,13,13,8,·,3.3
COc1ccccc1C(=O)N/C(=C\c1cn(S(=O)(=O)N(C)C)c2ccccc12)C(=O)NCCCN1CCOCC1,-1,5041,-34,4,2,-5,4.4
COc1cccc(-c2cc(CC3(O)CCN(CCCc4ccccc4)CC3)on2)c1,-3,3414,-6,-11,-5,12,-2.8
Cn1nc(C(=O)OCC(=O)Nc2cc(Cl)ccc2C#N)c2ccccc2c1=O,2,5196,·,14,3,·,3.4
CC1=C(C(=O)OC(C)C)C(c2ccc(C)o2)C(C(=O)OC(C)C)=C(C)N1,-16,5418,-26,7,-2,-6,2.3
CC(C)CCN1C(=O)CCC1(C)C(=O)NC1CCCCCC1 (stereo not given),2,9546,·,8,5,-2,1.1

# 3 structures already listed, sorted by SMILES length, highest first.
SMILES,Sa ugtP lethal,Autofluor counter,PrP UTR inh,Mtb hypoxia inh,Mtb hypoxia inh growth,BJeLR viability,RN4220 kill
Cc1cnc(C(=O)OCC(=O)Nc2cc(S(=O)(=O)N3CCOCC3)ccc2Cl)cn1,-1,4269,13,13,8,·,3.3
CC1=C(C(=O)OC(C)C)C(c2ccc(C)o2)C(C(=O)OC(C)C)=C(C)N1,-16,5418,-26,7,-2,-6,2.3
COc1cccc(-c2cc(CC3(O)CCN(CCCc4ccccc4)CC3)on2)c1,-3,3414,-6,-11,-5,12,-2.8
